Compound activity: PubChem, Broad Institute
UUG fidelity = alters start codon recognition fidelity in yeast; AID 602363; activity score, % at 18.7 µM; S. cerevisiae UUG-firefly luciferase reporter, luminescence/redox ratio; actives 0.13% (n = 350,000);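 active = replicate mean at a twofold rise or more, about +100% in these data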;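 note: firefly luciferase made from a UUG start codon reports start codon fidelity; reporter light over untreated wells divided by growth signal over untreated wells; some hits fall short of that in this replicate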
HIV Env fusion = HIV envelope-mediated fusion inhibition. HeLa-JRFL Env/CEM21 cell fusion, luciferase. actives 1.1% (n = 360,000). inhibition, % at 12.3 µM;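 active = mean replicate inhibition score of at least 50 and every replicate individually at or above 50; inconclusive = only one of the two criteria met; inactive = mean below 50 and not all replicates reaching 50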;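 note: 0% = plate neutral controls and 100% = maraviroc near 300 nM; one replicate is shown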
* marks the source's active call; other numbers are inactive results; ? = inconclusive; & = joins results of further samples; [ ] = another dose, or the depositor's remark. An excerpt; rates above refer to the full screens.

HIV Env fusion | UUG fidelity | SMILES
0.5[16.7 µM] | -11.8 | C[C@H](CO)N1C[C@H](C)[C@H](CN(C)S(=O)(=O)c2ccccc2)Oc2c(NC(=O)c3ccncc3)cccc2C1=O
-11.1[16.7 µM] | -7.4 | O=C(O)C[C@@H]1C[C@@H]2c3cc(NC(=O)NC4CCCC4)ccc3O[C@@H]2[C@@H](CO)O1
11.2[16.7 µM] | 36.9 | Cc1ccc(S(=O)(=O)Nc2ccc3c(c2)C(=O)N([C@@H](C)CO)C[C@@H](C)[C@@H](CN(C)C(=O)c2ccccc2)OCCCC[C@H](C)O3)cc1
-5.7[16.7 µM] | -4.2 | CCCNC(=O)N1C[C@@H](O)COC[C@H]2O[C@@H](CC(=O)NCCCN3CCOCC3)CC[C@@H]21
0.0[16.7 µM] | -4.1 | COCC(=O)N[C@@H]1CC[C@H](CC(=O)N2CCCCC2)O[C@H]1CO
-23.9[16.7 µM] | -8.7 | C[C@@H]1CN([C@H](C)CO)C(=O)c2cc(-c3ccncc3)cnc2O[C@@H]1CN(C)C(=O)c1ccncc1
-1.8[16.7 µM] | 9.4 | Cc1noc(C)c1NC(=O)Nc1ccc2c(c1)CC(=O)N([C@H](C)CO)C[C@@H](C)[C@@H](CN(C)S(=O)(=O)c1ccccc1)O2
-0.4[16.7 µM] | 35.7 | CCC(=O)N(C)C[C@H]1Oc2cc(C3=CCCC3)ccc2S(=O)(=O)N([C@H](C)CO)C[C@H]1C
20.7[16.7 µM] | -0.5 | C[C@H](CO)N1C[C@H](C)[C@H](CN(C)Cc2ccccc2)Oc2ncc(C#Cc3ccccc3)cc2C1=O
-0.1[16.7 µM] | 9.1 | COC(=O)[C@@]1(CCS(=O)(=O)c2ccccc2)N=C(c2ccc(OCCCO)cc2)O[C@H]1c1ccccc1CN=[N+]=[N-]
-6.1[16.7 µM] | -10.7 | O=S(=O)(N[C@@H]1CC[C@@H](CCn2cc(-c3cccnc3)nn2)O[C@H]1CO)c1ccc(F)cc1
5.4[16.7 µM] | -11.6 | CC(C)NC(=O)N(C)C[C@@H]1Oc2ccc(NS(=O)(=O)c3cn(C)cn3)cc2C(=O)N([C@@H](C)CO)C[C@H]1C
2.4[16.7 µM] | -1.8 | C/C=C/c1ccc2c(c1)O[C@@H](CN(C)Cc1ccccn1)[C@@H](C)CN([C@@H](C)CO)S2(=O)=O
14.1[16.7 µM] | 5.4 | CCC(=O)N(C)C[C@@H]1Oc2cc(-c3cccc(F)c3)ccc2S(=O)(=O)N([C@H](C)CO)C[C@@H]1C
-19.4[16.7 µM] | 107.2* | O=C(CCN1CCCCC1)NCC[C@H]1CC[C@H](NC(=O)Cc2cccnc2)[C@H](CO)O1
? | 9.8 | Cc1ccc(S(=O)(=O)Nc2ccc3c(c2)C(=O)N([C@H](C)CO)C[C@H](C)[C@H](CN(C)C(=O)Nc2ccc(C(F)(F)F)cc2)OCCCC[C@H](C)O3)cc1

An excerpt from above in order of formula weight, smallest number first:
HIV Env fusion | UUG fidelity | SMILES
-19.4[16.7 µM] | 107.2* | O=C(CCN1CCCCC1)NCC[C@H]1CC[C@H](NC(=O)Cc2cccnc2)[C@H](CO)O1
2.4[16.7 µM] | -1.8 | C/C=C/c1ccc2c(c1)O[C@@H](CN(C)Cc1ccccn1)[C@@H](C)CN([C@@H](C)CO)S2(=O)=O
5.4[16.7 µM] | -11.6 | CC(C)NC(=O)N(C)C[C@@H]1Oc2ccc(NS(=O)(=O)c3cn(C)cn3)cc2C(=O)N([C@@H](C)CO)C[C@H]1C
-0.1[16.7 µM] | 9.1 | COC(=O)[C@@]1(CCS(=O)(=O)c2ccccc2)N=C(c2ccc(OCCCO)cc2)O[C@H]1c1ccccc1CN=[N+]=[N-]

(listing goes on)
HIV Env fusion | UUG fidelity | SMILES
-5.9[16.7 µM] | -9.9 | O=C(Nc1ccc2c(c1)[C@@H]1C[C@H](CC(=O)N3CCc4ccccc4C3)O[C@@H](CO)[C@@H]1O2)Nc1ccccc1F
11.0[16.7 µM] | 4.3 | COc1cccc(C#Cc2cnc3c(c2)C(=O)N([C@H](C)CO)C[C@H](C)[C@@H](CN(C)C(=O)C2CCCCC2)O3)c1
11.1[16.7 µM] | -10.5 | Cc1noc(C)c1NC(=O)N[C@@H]1CC[C@@H](CC(=O)Nc2ccc(-c3ccccc3)cc2)O[C@H]1CO
-31.0[16.7 µM] | 10.8 | Cc1noc(C)c1NC(=O)Nc1ccc2c(c1)C(=O)N([C@@H](C)CO)C[C@@H](C)[C@H](CN(C)C(=O)C1CCCCC1)OCCCC[C@@H](C)O2
16.5[16.7 µM] | 10.5 | CNC(=O)C[C@H]1CC[C@H]2[C@H](COc3ccc(NC(=O)Nc4ccc(F)cc4)cc3C(=O)N2C)O1
-4.3[16.7 µM] | -2.6 | COc1ccc(NC(=O)N(C)C[C@@H]2Oc3ccc(NC(=O)CCCCCC(=O)Nc4ccccc4N)cc3CC(=O)N([C@H](C)CO)C[C@@H]2C)cc1
-19.6[16.7 µM] | 20.0 | O=C(C[C@@H]1CC[C@H](NC(=O)C2CCC2)[C@@H](CO)O1)NCc1ccncc1
-24.7[16.7 µM] | -20.4 | COc1ccc(NC(=O)N(C)C[C@H]2OCCCC[C@@H](C)Oc3ccc(NS(=O)(=O)c4cn(C)cn4)cc3C(=O)N([C@@H](C)CO)C[C@@H]2C)cc1
-43.6[16.7 µM] | -9.4 | C[C@H]1CN([C@@H](C)CO)C(=O)Cc2cc(NS(=O)(=O)c3cn(C)cn3)ccc2O[C@H]1CN(C)C(=O)Nc1cccc2ccccc12
-6.6[16.7 µM] | 3.5 | CCC(=O)N(C)C[C@@H]1Oc2cc(-c3ccc(C)cc3)ccc2S(=O)(=O)N([C@H](C)CO)C[C@H]1C
-4.9[16.7 µM] | -7.5 | CNC[C@H]1Oc2c(NC(=O)C3CC3)cccc2C(=O)N([C@@H](C)CO)C[C@H]1C
28.4[16.7 µM] | 0.0 | CC(C)C#Cc1ccc2c(c1)O[C@H](CN(C)C(=O)Nc1ccccc1)[C@H](C)CN([C@@H](C)CO)S2(=O)=O
22.0[16.7 µM] | 7.4 | C[C@@H]1CN([C@H](C)CO)C(=O)c2cc(NC(=O)Nc3cccc4ccccc34)ccc2O[C@@H](C)CCCCO[C@@H]1CN(C)Cc1ccncc1
-6.5[16.7 µM] | 4.9 | CNC[C@H]1Oc2ccc(NC(=O)C3CC3)cc2CC(=O)N([C@H](C)CO)C[C@H]1C
6.3[16.7 µM] | 26.1 | CCCC(=O)Nc1ccc2c(c1)C(=O)N(C)[C@H]1CC[C@@H](CC(=O)NCC3CCCCC3)O[C@@H]1CO2
-9.3[16.7 µM] | -10.8 | C[C@H]1CCCCO[C@H](CN(C)S(=O)(=O)c2ccccc2)[C@@H](C)CN([C@@H](C)CO)C(=O)c2cc(NS(=O)(=O)c3ccc(F)cc3)ccc2O1

Sorted by the number under UUG fidelity (smallest number first): 4 from the list above.
HIV Env fusion | UUG fidelity | SMILES
-11.1[16.7 µM] | -7.4 | O=C(O)C[C@@H]1C[C@@H]2c3cc(NC(=O)NC4CCCC4)ccc3O[C@@H]2[C@@H](CO)O1
-5.7[16.7 µM] | -4.2 | CCCNC(=O)N1C[C@@H](O)COC[C@H]2O[C@@H](CC(=O)NCCCN3CCOCC3)CC[C@@H]21
-4.3[16.7 µM] | -2.6 | COc1ccc(NC(=O)N(C)C[C@@H]2Oc3ccc(NC(=O)CCCCCC(=O)Nc4ccccc4N)cc3CC(=O)N([C@H](C)CO)C[C@@H]2C)cc1
-6.5[16.7 µM] | 4.9 | CNC[C@H]1Oc2ccc(NC(=O)C3CC3)cc2CC(=O)N([C@H](C)CO)C[C@H]1C

(listing goes on)
HIV Env fusion | UUG fidelity | SMILES
10.9[16.7 µM] | 8.8 | Cc1ccc(S(=O)(=O)Nc2ccc3c(c2)CC(=O)N([C@H](C)CO)C[C@H](C)[C@H](CN(C)Cc2ccc(Cl)c(Cl)c2)O3)cc1
-44.9[16.7 µM] | 8.0 | COc1ccc(S(=O)(=O)N(C)C[C@H]2Oc3ccc(NS(=O)(=O)c4c(C)noc4C)cc3C(=O)N([C@@H](C)CO)C[C@H]2C)cc1
-1.6[16.7 µM] | -1.7 | CS(=O)(=O)Nc1ccc2c(c1)[C@@H]1C[C@@H](CC(=O)N3CCc4ccccc4C3)O[C@@H](CO)[C@@H]1O2
53.9[16.7 µM] | -15.1 | Cc1ccc(S(=O)(=O)N(C)C[C@@H]2Oc3cc(C4=CCCC4)ccc3S(=O)(=O)N([C@@H](C)CO)C[C@@H]2C)cc1
-68.3[16.7 µM] | -7.0 | Cc1ccc(S(=O)(=O)N(C)C[C@@H]2OCCCC[C@H](C)Oc3ccc(NS(=O)(=O)c4ccccc4)cc3C(=O)N([C@H](C)CO)C[C@@H]2C)cc1
-4.5[16.7 µM] | -11.0 | COc1cccc(C#Cc2ccc3c(c2)O[C@@H](CN(C)S(=O)(=O)c2ccccc2F)[C@@H](C)CN([C@H](C)CO)S3(=O)=O)c1
15.2[16.7 µM] | 10.4 | CCCNC(=O)Nc1ccc2c(c1)C(=O)N(C)[C@@H]1CC[C@H](CC(=O)NC3CCC3)O[C@H]1CO2
-7.1[16.7 µM] | -6.7 | C[C@@H]1CN([C@H](C)CO)S(=O)(=O)c2ccc(C#CC3CC3)cc2O[C@@H]1CN(C)C(=O)c1cccnc1
-7.3[16.7 µM] | 0.6 | CCCNC(=O)N1C[C@@H](O)COC[C@H]2O[C@H](CC(=O)N[C@H]3CCN(Cc4ccccc4)C3)CC[C@@H]21
5.9[16.7 µM] | 0.0 | C[C@H]1CN([C@@H](C)CO)C(=O)c2cccc(NC(=O)c3ccc(-c4nccs4)cc3)c2O[C@@H]1CN(C)Cc1ccc(Cl)c(Cl)c1
5.7[16.7 µM] | 0.9 | O=C(C[C@H]1C=C[C@H](NC(=O)Cc2cccnc2)[C@@H](CO)O1)NCc1ccc2c(c1)OCO2
11.2[16.7 µM] | -6.0 | COc1ccc(NC(=O)N[C@@H]2CC[C@H](CCNC(=O)c3ccccc3F)O[C@H]2CO)cc1
-32.0[16.7 µM] | 12.2 | CC(C)NC(=O)Nc1ccc2c(c1)C(=O)N([C@@H](C)CO)C[C@H](C)[C@@H](CN(C)Cc1ccc(C(=O)O)cc1)OCCCC[C@@H](C)O2
-5.4[16.7 µM] | 14.5 | O=C(C[C@@H]1C[C@H]2c3cc(NC(=O)c4cccnc4)ccc3O[C@H]2[C@H](CO)O1)NCc1ccccc1
-6.9[16.7 µM] | 3.2 | O=C(NCC[C@H]1CC[C@H](NC(=O)C2CC2)[C@@H](CO)O1)c1cnccn1
-24.4[16.7 µM] | -12.6 | C[C@@H]1CN([C@H](C)CO)C(=O)c2cc(C3=CCCCC3)cnc2O[C@H]1CN(C)C(=O)CN1CCOCC1
-12.2[16.7 µM] | 9.8 | C[C@H](CO)N1C[C@H](C)[C@H](CN(C)C(=O)C2CCOCC2)Oc2ncc(-c3ccncc3)cc2C1=O
-15.2[16.7 µM] | 20.2 | C[C@@H]1CN([C@H](C)CO)C(=O)c2cc(C#CC3CCCCC3)cnc2O[C@H]1CN(C)S(C)(=O)=O
20.2 | -5.7&-0.8 | CC(=O)N(C)C[C@@H]1Oc2cc(Br)ccc2S(=O)(=O)N([C@H](C)CO)C[C@@H]1C
4.9[16.7 µM] | 18.0 | CC(=O)N(C)C[C@H]1Oc2ncc(/C=C/c3ccccc3)cc2C(=O)N([C@H](C)CO)C[C@@H]1C
-23.7[16.7 µM] | 22.7 | CC(C)CC#Cc1cnc2c(c1)C(=O)N([C@@H](C)CO)C[C@H](C)[C@H](CN(C)C(=O)Cc1cccnc1)O2
10.3[16.7 µM] | -4.7 | C/C=C/c1cnc2c(c1)C(=O)N([C@@H](C)CO)C[C@H](C)[C@@H](CN(C)C(=O)C1CC1)O2
-24.3 | 6.4 | Cc1cc(C)c2c(n1)nn1c(NCCCN3CCOCC3)cc(C)nc21
21.1[16.7 µM] | -6.5 | COc1ccc(S(=O)(=O)Nc2ccc3c(c2)CC(=O)N([C@@H](C)CO)C[C@H](C)[C@@H](CN(C)Cc2ccc(C(F)(F)F)cc2)O3)cc1
67.5*[16.7 µM] | 11.5 | COc1ccc(S(=O)(=O)Nc2ccc3c(c2)C(=O)N([C@@H](C)CO)C[C@H](C)[C@H](CN(C)C(=O)NC(C)C)OCCCC[C@@H](C)O3)cc1
18.9[16.7 µM] | 9.0 | Cc1noc(C)c1NC(=O)NCC[C@@H]1CC[C@H](NC(=O)Nc2cccc(F)c2)[C@H](CO)O1
-3.2[16.7 µM] | 12.0 | CC(C)CC#Cc1cnc2c(c1)C(=O)N([C@@H](C)CO)C[C@@H](C)[C@H](CN(C)C(=O)Nc1cccc(F)c1)O2
-5.1[16.7 µM] | -3.5 | C[C@H](CO)N1C[C@H](C)[C@H](CN(C)S(=O)(=O)c2cccs2)OCCCC[C@H](C)Oc2ccc(NC(=O)NC3CCCCC3)cc2C1=O
-8.0[16.7 µM] | -2.4 | CC(C)C(=O)Nc1ccc2c(c1)C(=O)N(C)[C@H]1CC[C@H](CC(=O)NCc3ccccc3F)O[C@@H]1CO2
14.4[16.7 µM] | 9.4 | C[C@@H]1CN([C@@H](C)CO)C(=O)c2cc(NS(=O)(=O)c3ccccc3)ccc2O[C@@H](C)CCCCO[C@@H]1CN(C)C(=O)CCCN(C)C
9.9[16.7 µM] | -19.6 | C[C@@H]1CCCCO[C@@H](CN(C)C(=O)Nc2cccc3ccccc23)[C@H](C)CN([C@@H](C)CO)C(=O)c2cc(NC(=O)Nc3ccc4c(c3)OCO4)ccc2O1
-24.7[16.7 µM] | -1.2 | CC(C)NC(=O)Nc1ccc2c(c1)C(=O)N([C@@H](C)CO)C[C@@H](C)[C@@H](CN(C)Cc1ccccc1)OCCCC[C@H](C)O2
-11.6[16.7 µM] | 21.5 | Cc1noc(C)c1S(=O)(=O)Nc1ccc2c(c1)C(=O)N([C@@H](C)CO)C[C@H](C)[C@H](CN(C)C(=O)C1CCCCC1)OCCCC[C@@H](C)O2
7.3[16.7 µM] | 4.5 | C[C@@H]1CN([C@H](C)CO)C(=O)c2cc(NC(=O)NC3CCCCC3)ccc2O[C@@H]1CN(C)C(=O)NC1CCCCC1
